BmaI1 enzyme = BmaI1 acyl-homoserine lactone synthase inhibition – biochemical, fluorescence intensity, with counterscreen (AID 720554) | BmaI1 enzyme assay, fluorescence intensity; active compounds read high; test concentration not given here; a few actives read low; strong numbers were not always called active | inhibition, % | 0.4% of 12,000 active;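 active = both replicates within 2 robust z-scores of the inhibited control and a quiet counterscreen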;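 also: 0% = uninhibited enzyme and 100% = inhibited control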
BmaI1 enzyme counterscreen = also measured in BmaI1 enzyme; calls as there; inhibition, %; measured here: counterscreen; design of the counterscreen not given here;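 first of two replicates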
* = called active by the depositor. The list is partial (hit frequency here may not be typical).

Results follow in this order: BmaI1 enzyme | BmaI1 enzyme counterscreen
COC(=O)CN1C(=O)CS/C1=C\C#N
 : 14 | 8
O=C(CSc1ncccn1)NC(=O)NCc1ccco1
 : 6 | 1
O=C1CCCN1C(=O)CSc1n[nH]c(=O)n1CCc1ccccc1
 : 6 | -1
CCN1CCN(C(=O)/C(C#N)=c2\s/c(=C\c3ccco3)c(=O)n2-c2ccc(Cl)cc2)CC1
 : 12 | 11
O=C(OCc1nc2ccccc2s1)C1CCN(S(=O)(=O)c2ccccc2C(F)(F)F)CC1
 : 10 | -2
C[C@@H]1CN(CCCn2c3ccccc3c3ccccc32)C[C@H](C)N1
 : 16 | 28
NC(=S)Nc1nc2ccccc2s1
 : 41 | 58
NNC(=O)CN1CCCCCC1=O
 : -104 | -76
CCn1c(CCC(=O)NCc2ccc(C)cc2)nc2cc(S(=O)(=O)N(C)C)ccc21
 : 6 | 6
COc1cc(C)c(Cc2cnc(N)nc2N)cc1OC
 : 4 | -2
CN(CC(=O)N1CCc2ccccc21)C1CCS(=O)(=O)C1 (stereo not drawn)
 : 26 | 18
CCOc1cc(Br)c(CC#N)cc1OCC
 : 7 | 16
CCN1C(=O)S/C(=C\c2cc(C)n(-c3ccccn3)c2C)C1=O
 : 15 | 16
Cc1ccc(N2C(=O)N(Cc3c(C)noc3C)C(=O)C2C)cc1 (stereo not drawn)
 : 6 | 4
CCOC(=O)c1ccc2c(c1)nc(SCc1nc3ccccc3s1)n2CC
 : 26 | 13
Cc1ccc2c(c1)C1CN(C)CCC1N2C(=O)c1cccs1 (stereo not drawn)
 : 6 | 2
O=C(NCc1ccco1)c1ccc(S(=O)(=O)N2CCCC2)cc1
 : 6 | 8
C=CCn1c(=S)sc2c(=O)[nH]cnc21
 : 14 | 6
CC(NS(=O)(=O)c1cc(C(F)(F)F)ccc1Cl)C(=O)N1CCN(c2ccccc2)CC1 (stereo not drawn)
 : -10 | 4
CC(=O)NCC(=O)N1CCN(Cc2ccc3c(c2)OCO3)CC1
 : -10 | 0
Cc1cc2ccccn2c1C(=O)c1nc(N2CCN(c3ccc(F)cc3)CC2)ncc1Cl
 : 12 | 2
Cc1cccn2cc(CSc3nc4ccccc4o3)nc12
 : 10 | 4
Cc1cccc(C(=O)N2CCN(c3ccc(C(F)(F)F)cn3)CC2)c1C
 : 12 | 3
NCCc1nnc2ccccn12
 : 8 | 4
CCOc1ccc(-c2nc(CN3CCCCC3)cs2)cc1
 : 10 | 2
CCOC(=O)NC(=O)Cn1nnc(-c2cccc(C(F)(F)F)c2)n1
 : 16 | 0
CSc1ccccc1C(=O)OCC(=O)NC1CC1
 : 7 | -1
CC(=O)Nc1cccc2c1C(=O)NC2=O
 : 4 | 1
O=C1CN(C(=O)c2ccc3c(c2)S(=O)(=O)c2ccccc2C3=O)c2ccccc2N1
 : -4 | 1
Cc1ccc(S(=O)(=O)NCC(=O)OC2CCOC2=O)cc1 (stereo not drawn)
 : -3 | 4

Other results:
Results follow in this order: BmaI1 enzyme | BmaI1 enzyme counterscreen
O=c1cc(CSc2nnc(-c3cccnc3)n2-c2ccccc2F)nc2sccn12
 : 8 | 6
Cc1ccccc1NCCC(=O)Nc1ccc(Cl)cc1
 : 32 | -2
O=C(COC(=O)C1CC1)Nc1ccccc1
 : 2 | 2
CN(C(=O)COC(=O)c1ccc2c(=O)n3c(nc2c1)CCC3)c1ccccc1
 : -1 | -2
COC(=O)c1ccccc1NC(=O)Cn1sc2ccccc2c1=O
 : 12 | 1
NCCc1ccc(O)c(O)c1
 : 40 | 9
O=C(Cn1cc(C(F)(F)F)ccc1=O)N1CCCC1
 : 8 | 0
Cc1ccc(N2C(=O)CC(N3CCN/C3=C3/CC/C(=C\c4ccccc4)C3=O)C2=O)cc1 (stereo not drawn)
 : 8 | 8
c1ccc2c(c1)oc1c(N3CCNCC3)ncnc12
 : 12 | 11
Cc1c(C(=O)OC(C)C(=O)N(C)c2ccccc2)oc2ccccc12 (stereo not drawn)
 : 16 | 6
O=C(Nc1ccc(Br)c(C(F)(F)F)c1)c1ccc(=O)[nH]c1
 : 8 | 0
CCN(CC(=O)Nc1ccccc1C(F)(F)F)CC(=O)NC1CC1
 : 4 | 6
CCCCCn1c(CO)nc2ccccc21
 : -9 | -8
COC(=O)c1ccccc1S(=O)(=O)N1CCC(C(=O)OCC(=O)NC2CCCCC2C)CC1 (stereo not drawn)
 : 8 | 4
O=C(NCc1ccco1)c1ccc(Cl)c(NS(=O)(=O)c2ccc(F)cc2)c1
 : 16 | 4
CCCN1C(=O)/C(=N\OCC(=O)NCCC2=CCCCC2)c2ccccc21
 : 16 | 8
COc1ccccc1-n1cnnc1SCC#N
 : 6 | 0
O=C(CN1CCN(S(=O)(=O)c2ccccc2)CC1)NC(=O)NC1CCCCC1
 : 12 | 6
CC(C)NCC(O)COc1ccc(CC(N)=O)cc1 (stereo not drawn)
 : 4 | 14
CCOc1ncccc1C(=O)OC(C)C(=O)Nc1ccccc1 (stereo not drawn)
 : 12 | 4
CCN1CCC[C@H]1CNC(=O)c1c(O)c(Cl)cc(Cl)c1OC
 : 8 | 15
CCC(CC)NC(=O)c1ccc2ncsc2c1
 : 22 | -4
O=C1OCCC1NC1=NCCC1 (stereo not drawn)
 : 56 | 8
CCn1c(=O)c(=O)[nH]c2cc(C(=O)NCc3cccs3)ccc21
 : 4 | 2
O=C(OCc1cn2cc(Cl)ccc2n1)c1ccc(N2CCCC2=O)cc1
 : 19 | 12
NC(=O)Cc1cn2ccccc2n1
 : -18 | 1
CCOc1ccc(-n2c(=O)c3ccc(Cl)cc3n3c(Cn4nnc(-c5ccccc5)n4)nnc23)cc1
 : 19 | 4
COC(=O)c1ccc2c(=O)n(CC(C)O)c(=S)[nH]c2c1 (stereo not drawn)
 : 24 | 25
Cc1csc(NC(=O)c2cccc(S(=O)(=O)N(C)C)c2)n1
 : -14 | 5
COC(=O)c1ccc(-n2c(C)cc(C(=O)CN3C(=O)CN(C)C3=O)c2C)cc1
 : 9 | -4

The list continues:
Results follow in this order: BmaI1 enzyme | BmaI1 enzyme counterscreen
Cc1nc2nc(N)nn2c(C)c1CC(=O)NC(C)c1ccccc1 (stereo not drawn)
 : 6 | 0
O=C(/C=C/c1ccc(Br)o1)OCc1cc(=O)oc2cc3c(cc12)CCC3
 : 14 | 7
COc1ccc(-n2c3nc4ccccc4nc3c3c(=N)oc(C)nc32)cc1
 : 25 | 12
CC(Oc1ccc(C(=O)c2ccc(F)cc2)cc1)C(=O)NC(N)=O (stereo not drawn)
 : 0 | 2
Cc1cc(C(=O)CSc2nnc(Cc3ccccc3)o2)c(C)n1Cc1ccc2c(c1)OCO2
 : 2 | -3
CCN(CC)S(=O)(=O)c1cccc(C(=O)N[C@H](C(=O)NCc2ccc3c(c2)OCO3)C(C)C)c1
 : -4 | -4
COc1ccc(CCN2C(=O)C(C(C)C)NC2=S)cc1OC (stereo not drawn)
 : 8 | 13
O=C(COc1cccc(Oc2ccccc2)c1)Nc1ncccn1
 : 4 | 0
CC1CN(C(=O)C(C)NC(c2ccccc2)c2ccccc2)CC(C)O1 (stereo not drawn)
 : 17 | 12
CC(=O)Nc1ccc(S(=O)(=O)Nc2nc(CN3CCOCC3)nc3sc4c(c23)CCCC4)cc1
 : 6 | 1
CN(Cc1cccs1)C(=O)c1ccc2c(c1)NC(=O)CS2
 : 11 | 16
O=C(O)c1ccccc1Nc1ccc(SC(F)F)cc1
 : 33 | 4
CC(C)(CNc1nc2cc3c(cc2nc1NS(=O)(=O)c1ccccc1)OCCO3)N1CCOCC1
 : 19 | 2
O=C(CN1C(=O)C2CC=CCC2C1=O)NC1CCCc2ccccc21 (stereo not drawn)
 : 16 | 12
Cc1cc(Br)cc(C)c1OCCCN(C)C
 : 6 | 7
CCN(CC)S(=O)(=O)c1cccc(C(=O)N/N=C/c2ccc(OC(=O)c3ccco3)c(OC)c2)c1
 : 15 | -3
CC(=O)NC12CC3CC(C1)CC(C(=O)OCC(=O)Nc1ccccc1C(=O)NC1CC1)(C3)C2
 : 22 | 8
O=c1[nH]c(=S)[nH]nc1-c1ccc(F)c(F)c1
 : 39 | 14
Cc1ccc2nc(CN(C)Cc3c(F)cccc3Cl)cc(=O)n2c1
 : 20 | 6
Cn1c(N)c(C(=O)c2ccc(Cl)c(S(=O)(=O)N3CCCCCC3)c2)c(=O)n(C)c1=O
 : 14 | 16
COc1ccc(COCC(O)CN2CCCC(C(F)(F)F)C2)cc1 (stereo not drawn)
 : 6 | 10
N#Cc1ccccc1S(=O)(=O)N1CCN(C(=O)CCc2cccs2)CC1
 : 5 | 1
Cc1onc(-c2ccccc2)c1C(=O)N1CCSC1=NCc1ccccc1
 : 12 | 13
CN1C2CCC1CC(OC(c1ccccc1)c1ccccc1)C2 (stereo not drawn)
 : 12 | 25
CC(C1CC1)n1nccc1NC(=O)c1cccc(S(C)(=O)=O)c1 (stereo not drawn)
 : 5 | 2
Cc1cc(C)n2nc(C(=O)N(C/C=C/c3ccccc3)c3ccc4c(c3)OCCO4)nc2n1
 : 4 | -12
CN(C)c1nc(-c2ccccc2)c(CC(=O)O)s1
 : -93 | -50
O=C(COc1ncnc2ccccc12)NC1CCCC1
 : 12 | 10
COc1cc(/C=N/NS(=O)(=O)c2ccc(Br)cc2)cc(OC)c1O
 : 102 | 54
CCN(CC(=O)NCc1ccc(F)cc1)Cc1cc(=O)n2ccsc2n1
 : 12 | 6

Continued:
Results follow in this order: BmaI1 enzyme | BmaI1 enzyme counterscreen
Cc1ccc(CNC(=O)c2ccc(OCC(C)C)cc2)n1C
 : 16 | 6
Cc1ccccc1COC(=O)C1CCN(S(=O)(=O)c2ccc3c(c2)OCCO3)CC1
 : 14 | 6
O=C(Nc1ccc(N2CCOCC2)cc1)c1oc2ccccc2c1CSc1ncn[nH]1
 : 25 | 54
CCOC(=O)C(C(=O)c1ccccc1)C1(O)C(=O)c2ccccc2C1=O (stereo not drawn)
 : -38 | -52
N#CCc1csc(-c2ccccc2)n1
 : 14 | 14
O=C(O)CCc1nnc(-c2ccccc2)o1
 : 7 | 2
Cn1c(SCC(=O)N(c2ccccc2)C2CCCCC2)nc2cc(S(N)(=O)=O)ccc21
 : 32 | 2
Cc1ccn2nc(C(=O)OCC(=O)N(Cc3ccccc3)Cc3ccccc3)nc2n1
 : 3 | 2
O=C(Nc1ccc(N2CCOCC2)cc1)c1ccc2c(=O)n3c(nc2c1)CCC3
 : 13 | 1
C=CCNC(=O)c1cc2c(C)nn(-c3ccc(F)cc3)c2s1
 : -2 | -5
CCOC(=O)C1=C(CSc2nc3cc(C(=O)OCC)ccc3n2CC)NC(=O)NC1C (stereo not drawn)
 : 16 | 5
CC1Sc2ccc(C(=O)N=c3sc4ccccc4n3C)cc2NC1=O (stereo not drawn)
 : 20 | 8
O=C(CSc1nnc(-c2ccco2)o1)OCc1cc(=O)n2c(n1)sc1ccccc12
 : 0 | 3
CCOC(=O)C(=NCC1CCCO1)NNc1cc(Cl)ccc1Cl (stereo not drawn)
 : 46 | 19
c1cncc(CNC2=NCCC2)c1
 : 1 | 5
CCN(CC)S(=O)(=O)c1ccc(N=NC2=C(O)CCCC2=O)cc1
 : 18 | 12
CC(C)c1cc(NC(=O)COC(=O)c2ccccc2Oc2ccccc2)on1
 : 36 | 9
Cn1cnnc1SCC(=O)C(C)(C)C
 : -7 | -3
O=C(Cn1cnc2c(oc3ccccc32)c1=O)N1CCCC1c1ccc2c(c1)OCCCO2 (stereo not drawn)
 : 4 | -8
COCCn1cnc2c1c(=O)n(CC(=O)NC(=O)NC1CCCC1)c(=O)n2Cc1ccccc1
 : 12 | -4
c1ccc2c(c1)nnn2-c1ncnc2sccc12
 : 4 | 8
N#Cc1ccc(Cl)cc1NC(=O)COC(=O)CSc1ncnc2sccc12
 : 18 | 16
Clc1ccc(-n2ccnc2Sc2ncnc3sc4c(c23)CCCC4)cc1
 : 0 | 1
O=S(=O)(c1ccc(N2CN(S(=O)(=O)c3ccc(Cl)cc3)c3nc4ccccc4nc32)cc1)N1CCOCC1
 : 4 | -5
COc1ccc(NC(C)=O)cc1NC(=O)c1cncn1-c1ccc(F)cc1
 : 7 | 0
COC(=O)C1CCN(C(=O)COc2ncnc3c(Cl)cc(Cl)cc23)CC1
 : 12 | 6
O=S(=O)(Nc1nc2ccc(Cl)cc2s1)c1cccs1
 : 22 | 3
COc1ccc(C)cc1NCC(=O)NC1CCCCC1
 : 32 | -2
OCc1cccnc1
 : 4 | -2
O=C1CSc2ccc(C(=O)N3CCN(c4ccc(F)cc4)CC3)cc2N1
 : 1 | 4

Single records, from the list above.
Profile of COc1ccc(C)cc1NCC(=O)NC1CCCCC1 → BmaI1 enzyme = 32; BmaI1 enzyme counterscreen = -2
Profile of COc1cc(C)c(Cc2cnc(N)nc2N)cc1OC → BmaI1 enzyme = 4; BmaI1 enzyme counterscreen = -2
Profile of CCCN1C(=O)/C(=N\OCC(=O)NCCC2=CCCCC2)c2ccccc21 → BmaI1 enzyme = 16; BmaI1 enzyme counterscreen = 8

Remaining list, next part:
Results follow in this order: BmaI1 enzyme | BmaI1 enzyme counterscreen
CSc1ccccc1NC(=O)CN1CC(C)OC(C)C1 (stereo not drawn)
 : 15 | 9
Cn1cccc1C(=O)NC(=O)CSc1nc2ccccc2s1
 : 9 | 1
CN(C)Cc1nc2ccccc2c(=O)n1Cc1nc(C(C)(C)C)cs1
 : 32 | 12
O=C(CSc1nnc(-c2cccs2)n1-c1ccccc1)NCC1COc2ccccc2O1 (stereo not drawn)
 : 9 | 2
CON=C(C(=O)NC1C(=O)N2C(C(=O)O)=C(COC(C)=O)CSC12)c1csc(N)n1 (stereo not drawn)
 : 0 | 4
O=C(CSc1cccc[n+]1[O-])NC(=O)NCc1ccccc1
 : 5 | 0
Cc1nnc(SCC(=O)Nc2sc3c(c2C(N)=O)CCC3)n(N)c1=O
 : 52 | 8
CCOc1ccc(CN(C)CC(O)COCc2ccc(OC)cc2)cc1OC (stereo not drawn)
 : 6 | -3
CCc1cc2c(=O)c(-c3nncn3-c3ccccc3)coc2cc1O
 : -12 | 6
O=C(/C=C/c1ccc2ccccc2n1)OCC(=O)N1CCN(S(=O)(=O)c2ccccc2)CC1
 : 6 | 4

High-throughput results deposited in PubChem BioAssay by ICCB-Longwood Screening Facility, Harvard Medical School.
